miR-21 reporter: miR-21 reporter, rising signal; HeLa miR-21 FLuc reporter, luciferase, 48 h; Potency, µM (titrated, usually from 38.3 µM), inactives show at the top dose reporter change, positive = more light; 340,000 tested, under 10 active; AID 2288; active = well fitted rising curve with a large enough effect; inconclusive = small, poorly fitted or top-dose-only effect; inactive = no such curve, though single readings can be large or run the other way;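 note: % of control where 0% means no effect; miR-21 action dims this reporter so a rising signal means less miR-21 action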
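Compounds were titrated across several concentrations (up to approximately 40 uM) and incubated 48 hours with HeLa miR-21-FLuc reporter cells (miR-21 target sequence downstream of FLuc, endogenous miR-21). Readout was firefly luciferase luminescence after lytic detection reagent.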
* = called active by the depositor; ? = inconclusive; [ ] = remark or other dose.

molecule,miR-21 reporter
CCOC(=O)N1CCc2c(sc3c2c(=O)n(-c2ccc(Cl)cc2)c(=O)n3CC(C)C)C1,-1%
O=S(=O)(c1ccc(OC(F)(F)F)cc1)N1CCC(c2nc3ccccc3s2)CC1,5%
Cc1cccn2c(=O)c(C(=O)N3CCN(c4ccccc4F)CC3)cnc12,-36%
O=C(c1cnc(N2CCCCC2)c2ccccc12)N1CCN(c2ccccc2F)CC1,6%
O=C(Nc1nnc(S(=O)(=O)N2CCCC2)s1)c1ccc(F)cc1,-71%
COc1cc2nc(NCc3ccccc3Cl)n3nc(-c4cccnc4)nc3c2cc1OC,2%
CCOc1ccc(CCNC(=O)c2ccc3[nH]c(C)c(C)c3c2)cc1,-2%
CCOc1ccc(S(=O)(=O)N2CCC(n3c(C)nc4cccnc43)CC2)cc1,4%
CCOC(=O)c1cc(S(=O)(=O)N2CCN(c3ccccc3F)CC2)[nH]n1,?
COc1ccc(N2CCN(Cc3nc4c(c(=O)[nH]c(=O)n4C)n3Cc3ccc(C)cc3)CC2)cc1,-5%
CCc1ccc(NC(=O)Cn2c(C(=O)OC)cc3oc(C)cc32)cc1,-5%
CCc1ccc(CNC(=O)COc2cc(=O)n(CC)c3ccccc23)cc1,9%
Cc1ccc(N2CCN(S(=O)(=O)c3nnc(NC(=O)c4ccc(C(C)C)cc4)s3)CC2)cc1,-9%
Cc1nn(C)c2c1c(C(F)(F)F)cc(=O)n2Cc1ccc(Br)cc1F,-6%
COC(=O)c1ccc(NC(=O)CCCC(=O)OCC(=O)c2ccc(Cl)cc2)cc1,3%
CC1CCN(S(=O)(=O)c2cc(C(=O)N3CCN(c4ccccc4F)CC3)n(C)c2)CC1,-5%
COC(=O)c1ccccc1NC(=O)CSc1cc(-c2ccccc2)nc(C)n1,-12%
Cc1ccc(NC(=O)Cn2c(SCc3ccc(F)cc3)nc3cccnc32)cc1F,-25%
O=C(c1ccc2c(c1)OCCO2)N(Cc1cccnc1)c1nc2c(F)cccc2s1,13%
CC1=C(C(=O)OC2CCCCCC2)C(c2ccccc2Cl)CC(=O)N1 (stereo not drawn),2%
Cc1cc(C)n(-c2nc3cc(Cl)ccc3nc2Nc2ccc(C)c(F)c2)n1,0%
Cc1nc2c(c(SCC(=O)Nc3ccccc3C(F)(F)F)n1)CCC2,5%
CCOc1ccc(CCNC(=O)c2cccc(-n3c(C)nc4cccnc43)c2C)cc1,21%
Cc1c(C(=O)Nc2cccc(-c3nc4ccccc4s3)c2)oc2ccc(F)cc12,-1%
O=C(NCC(c1ccc2c(c1)OCO2)N1CCN(c2ccccc2)CC1)C(=O)Nc1ccccc1 (stereo not drawn),-4%
COc1cccc(C2C(C(=O)Nc3ccccc3)=C(C)Nc3nc(-c4ccccc4)nn32)c1OC (stereo not drawn),?
CCCn1cc(S(=O)(=O)c2cc(C)ccc2C)c(=O)c2cc(F)c(N3CCOCC3)cc21,1%
COc1cc(CN(C(=O)c2ccccc2[N+](=O)[O-])c2ccccn2)cc(OC)c1OC,-1%
Cc1nc2nc(SCc3c(F)cccc3Cl)nn2c(C)c1Cc1ccccc1,-56%
O=C(CCc1nc(-c2cccs2)no1)Nc1cccc([N+](=O)[O-])c1,-6%
Cc1ccc2nc(N3CCN(C(=O)C4CC4)CC3)sc2c1,-44%
Cc1cccc(N(CC(O)Cn2c3ccccc3c3ccccc32)S(=O)(=O)c2ccc(F)cc2)c1 (stereo not drawn),?
CCOc1ccccc1NC(=O)c1ccc(F)c(S(=O)(=O)NCc2ccc3c(c2)OCO3)c1,1%
CCc1ccc(NC(=O)CSc2nc(-c3ccccc3Cl)nc3c2Cc2c(CO)cnc(C)c2O3)cc1,9%
CCOc1ccc(S(=O)(=O)Nc2cccc(-c3ccc(OCC)nn3)c2)cc1,9%
Cc1ccc(C(c2sc3nc(-c4ccco4)nn3c2O)N2CCCCC2)cc1 (stereo not drawn),-3%
COc1ccc(Cn2c(=O)c3oc4ccccc4c3n(Cc3cccc(C(F)(F)F)c3)c2=O)cc1,-7%
Cc1cccc(C(=O)Nc2ccccc2-c2nc(-c3ccccc3)no2)c1,0%
Cc1nn(C(=O)COc2ccccc2)c(C)c1Sc1ccccc1,-9%
COc1cc(NC(=O)CC(c2ccc(C)cc2)N2Cc3ccccc3C2=O)cc(OC)c1 (stereo not drawn),19%
CCCCCCNC(=O)CCc1c(C)nc2nc(-c3cc(OC)cc(OC)c3)nn2c1C,0%
O=C(CCCc1nc(-c2ccccc2)no1)Nc1cc(C(F)(F)F)cc(C(F)(F)F)c1,-6%
CCOC(=O)c1cnc2ccc(C(=O)OC)cc2c1Nc1ccccc1CC,23%
COc1cn(CC(=O)Nc2ccc(C)cc2C)c(CN2CCCCC2)cc1=O,3%
CCSc1nc(-c2ccc(OC)cc2)nc2c1Cc1c(CO)cnc(C)c1O2,-11%
Cc1cc(C)cc(NS(=O)(=O)c2ccc3[nH]cc(C(=O)N4CCCC4)c(=O)c3c2)c1,0%
O=C(NCC(c1cccnc1)N1CCc2ccccc2C1)C(=O)Nc1cccc(Cl)c1 (stereo not drawn),-25%
CCS(=O)(=O)c1c(Nc2cc(C)ccc2C)sc(C(=O)c2ccccc2)c1N,?
Cc1ccccc1N1CCN(S(=O)(=O)c2nnc(NC(=O)c3ccc(C(C)C)cc3)s2)CC1,-29%
COc1cccc(C(=O)NCCc2sc(-c3cccc(C)c3)nc2C)c1,-13%
CCOC(=O)/C(C#N)=C/c1ccc(-c2ccc(Br)cc2)o1,-15%
COc1cccc(NC(=O)Cn2c(=O)n(-c3ccc(CC(=O)NCC4CCCO4)cc3)c(=O)c3ccccc32)c1 (stereo not drawn),4%
CC1CCN(C(=O)c2cc(-c3ccc(Cl)cc3)on2)CC1,-57%
COCCNC(=O)C1CCN(c2nc3ccccc3nc2C(F)(F)F)CC1,4%
Clc1cccc(CSc2nc(NCCc3ccccc3)c3ccccc3n2)c1,-5%
Cc1cccc(OCCSc2nc3ccccc3n2CC(=O)N2CCOCC2)c1C,-2%
CC1=C(C(=O)Nc2ccc(C)cc2C)C(c2sccc2C)n2ncnc2N1 (stereo not drawn),3%
CCOCCc1nnc(NC(=O)C(=O)c2cc(C)n(-c3cccc(C)c3)c2C)s1,-7%
CCOC(=O)c1c(NC(=O)C(C)Sc2cn(CCNC(=O)c3ccc(OC)cc3)c3ccccc23)sc2c1CCC2 (stereo not drawn),-3%
CCOC(=O)c1ccc(N2C(=O)c3[nH]nc(-c4ccc(OC)cc4)c3C2c2ccccc2Cl)cc1 (stereo not drawn),0%

Shown with each value named: entries from further up.
> O=C(Nc1nnc(S(=O)(=O)N2CCCC2)s1)c1ccc(F)cc1
- miR-21 reporter = -71%
> COc1cn(CC(=O)Nc2ccc(C)cc2C)c(CN2CCCCC2)cc1=O
- miR-21 reporter = 3%

(listing goes on)
molecule,miR-21 reporter
COc1ccc(CCNC(=O)Cn2cc(S(=O)(=O)Cc3ccc(F)cc3)c3ccccc32)cc1OC,-1%
Cc1ccc(-c2noc(-c3nnn(CC(=O)Nc4ccc(C)c(Cl)c4)c3N)n2)cc1,8%
COc1ccc2oc(=O)c(C(=O)N3CCN(c4ccc(C)cc4)CC3)cc2c1,3%
O=C(Nc1cccc(C(F)(F)F)c1)N1CC2CCCN2c2ccccc21 (stereo not drawn),-2%
COc1ccc(CCNC(=O)C2(c3cccs3)CCOCC2)cc1OC,-3%
Cc1ccccc1C(=O)Nc1cccc(OCc2cc(=O)n3c4c(sc3n2)CCCC4)c1,-22%
O=S(=O)(c1cccc(Cl)c1)c1nnn2c1nc(NCc1ccc3c(c1)OCO3)c1sccc12,-9%
CCn1c(=O)c2sccc2n2c(CCC(=O)Nc3ccc(F)cc3)nnc12,3%
Cc1nn(-c2ccc(N3CCCC3)nn2)c(C)c1CCC(=O)N1CCN(c2ccccc2)CC1,2%
Cc1cccc(/C=C2/Sc3ccc(C(=O)NCCCN4CCOCC4)cc3NC2=O)c1,-6%
COc1ccccc1NC(=O)c1c(NC(=O)COc2ccccc2)sc2c1CCCCC2,-1%
CCOC(=O)c1ccccc1NC(=O)CN1CCCN(Cc2cc(C)ccc2C)S1(=O)=O,-5%
COc1cccc(CNC(=O)C2CCCN(c3nnc(-n4c(C)ccc4C)s3)C2)c1 (stereo not drawn),24%
CCCCOc1ccccc1CC1C(=O)Nc2ccc(Br)cc21 (stereo not drawn),?
COc1cc2ccccc2cc1C(=O)Nc1cc(-c2nc3ccccc3o2)ccc1C,-12%
Cc1cccc(Cc2cnc(NC(=O)C3Cc4ccc(C)cc4C(=O)O3)s2)c1 (stereo not drawn),-1%
CC(=O)c1cccc(NC(=O)C(Cc2ccccc2)NS(=O)(=O)c2ccc(Br)s2)c1 (stereo not drawn),-6%
CC(C)CCNC(=O)N1CCN(S(=O)(=O)c2ccc3c(ccn3C)c2)CC1,-4%
CCCN(CCC)C(=O)Cn1c(=O)n(-c2cccc(C)c2)c(=O)c2c1c1cc(OC)ccc1n2C,?
COc1ccc(-n2c(=O)c3ccc(C(=O)NCc4ccc(C)cc4)cc3n(Cc3ccc(Cl)cc3)c2=O)cc1,-2%
O=C(Nc1ccc(F)cc1F)c1ccc(CN2CC(=O)N3CCCCC3C2=O)cc1 (stereo not drawn),-1%
COc1ccc(NC(=O)c2sc3nc4c(cc3c2N)CN(Cc2ccccc2)CC4)cc1,1%
CCc1ccc(CNC(=O)c2ccc3nc(SCc4ccc(F)cc4)n(C)c3c2)cc1,?
Cc1c(CC(=O)NCc2ccc(F)cc2)c(=O)oc2cc(O)c(Cl)cc12,-2%
Cc1ccc(C)c(NC(=O)c2nnn(CC(=O)Nc3cccc(C)c3C)c2N)c1,-2%
Cc1ccccc1OCC(=O)Nc1ccc(-c2nc3ncccc3o2)cc1,-11%
COc1ccc(NC(=O)Cn2c(=O)n(Cc3ccco3)c(=O)c3sc4ccccc4c32)cc1OC,-5%
O=C(NCc1ccc(Cl)cc1)c1cc2ccccc2o1,-15%
Cc1c(Cl)cccc1NC(=O)CSc1nc(=O)n(Cc2ccco2)c2c1CCC2,16%
COc1cc2c(cc1OC)C1O[C@](CCCCN3C(=O)c4ccccc4C3=O)(C2)Oc2c1c(=O)oc1ccc(F)cc21,-2%[7.66 µM]
CCOc1ccc(CCNc2ncnc3onc(C)c23)cc1OCC,25%
O=C1c2oc3ccccc3c(=O)c2C(c2cccc(Cl)c2)N1c1ccccn1 (stereo not drawn),5%
CCOC(=O)c1[nH]c(C)c(C(=O)NCc2cccc(OC)c2)c1C,9%
COc1cc(Cl)c(NC(=O)CCc2nc3cccnc3n2-c2ccccc2)c(OC)c1,-14%
Cc1ccc(NC(=O)Cn2c(=O)n(Cc3ccc4c(c3)OCO4)c(=O)c3ccccc32)c(C)c1,1%
Cc1ccc(NC(=O)Cn2ncc3c4ccccc4n(Cc4ccccc4)c3c2=O)cc1Cl,-1%
Cc1ccc(N2CCN(c3nc4c(S(=O)(=O)c5ccc(C)c(C)c5)nnn4c4ccccc34)CC2)c(C)c1,-1%
Cc1ccn2c(Nc3ccc4c(c3)OCCO4)c(-c3ccc(C)s3)nc2c1,28%
COC(=O)C(C)Sc1nnc2cc(C)c3cc(C)cc(C)c3n12 (stereo not drawn),25%
Cc1ccc(CNc2ncnc3c2cnn3-c2ccc(Cl)cc2)cc1,-22%

Some of these compounds in order of length of the SMILES, smallest number first:
molecule,miR-21 reporter
Cc1ccc(CNc2ncnc3c2cnn3-c2ccc(Cl)cc2)cc1,-22%
Cc1ccn2c(Nc3ccc4c(c3)OCCO4)c(-c3ccc(C)s3)nc2c1,28%
CCc1ccc(CNC(=O)c2ccc3nc(SCc4ccc(F)cc4)n(C)c3c2)cc1,?
COc1ccc(NC(=O)Cn2c(=O)n(Cc3ccco3)c(=O)c3sc4ccccc4c32)cc1OC,-5%

The list goes on.
molecule,miR-21 reporter
CCOc1ccc(-c2cc3c(=O)n(Cc4nc(-c5ccc(OCC)c(OC)c5)oc4C)ccn3n2)cc1Cl,-6%
COC(=O)c1cc(NC(=O)c2nn(C)c3c2CSc2ccccc2-3)cc(C(=O)OC)c1,-6%
CCC(C(=O)Nc1cccc(C#N)c1)n1nc(-c2ccccc2)ccc1=O (stereo not drawn),7%
CC(=O)N1CCc2cc(Br)cc(S(=O)(=O)N3CCC(C(=O)Nc4ccc(C(C)C)cc4)CC3)c21,-7%
Cc1ccc(NC(=O)CN2C(=O)c3cccnc3Oc3ccc(Cl)cc32)cc1,6%
Cc1cccc(N2CCN(C(=O)c3cnc4c(C)cccn4c3=O)CC2C)c1 (stereo not drawn),0%
COc1ccc(-c2cn3nc(N4CCCC(C(=O)NCCCOC(C)C)C4)sc3n2)cc1 (stereo not drawn),13%
CC1Cn2c(C(=O)NCc3ccccc3Cl)cc3cccc(c32)S1 (stereo not drawn),12%
CC(=O)c1cccc(NS(=O)(=O)c2c(C(=O)N3CCCCCC3)c(C)n(C)c2C)c1,12%
CCOc1ccc(NC(=O)CSc2nnc(CNC(=O)C34CC5CC(CC(C5)C3)C4)n2CC)cc1,10%
Cc1ccc(-c2cc(NC(=O)COc3ccc(Cl)c(C)c3)on2)cc1,-1%
Cc1cc(-c2ccc(S(=O)(=O)NCc3ccccc3Cl)s2)on1,-3%
COc1ccc(-c2ccc(CCC(=O)O)n2-c2ccccc2C(F)(F)F)cc1,?

Source: PubChem

The list is partial; rates above refer to the full screens.
